Autofluor counter – counter-screen for toxin protease inhibitors: compound fluorescence; hit rate 3.1% among 360,000; compound autofluorescence counterscreen, microsphere flow cytometry; stronger effect = higher value; fluorescence intensity (concentration not given with the values);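 active = at least 3 SD above the mean of all compounds, about 16000 in these data; inconclusive = too few beads counted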;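 note: 100 nL of 1 mM stock went into each well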
Sa ugtP lethal – kills S. aureus RN4220 lacking UgtP; S. aureus RN4220 ugtP deletion, OD600 growth, 16 h; some inactives read as strong as hits; growth inhibition, % (concentration not given with the values); hit rate 0.54% among 330,000; AID 1259309;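 active = z-score under -3 and OD600 up to 0.15 on both plates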;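 note: plate controls were untreated wells for no effect and antibiotic for full effect; wells of about 80 µL received 100 nL stock; the first replicate is given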
Mtb hypoxia rep – Mtb hypoxia fluorescent reporter inhibition | AID 1159583 | hit rate 0.1% among 300,000 | M. tuberculosis hypoxia-regulated fluorescent reporter, fluorescence | fluorescence inhibition, % (test concentration not listed);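 active = 35 to 45% if threefold the growth effect, above 45% if 1.5-fold the growth effect; inactive = the rest, general growth blockers included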;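 note: wells of about 50 µL received 100 nL stock; 0% = vehicle wells and 100% = reference inhibitor wells; whole bacteria with a GFP reporter of the hypoxia response; strong numbers were not always called active; many hits fall short of the cut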
BJeLR lethal – kills HRASV12-expressing BJeLR cells; BJeLR (HRASV12) viability, CellTiter-Glo ATP luminescence, 48 h; reference of the scale not given here; inhibition, % (test concentration not listed); hit rate 0.17% among 300,000;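 active = replicate mean above 50%; inconclusive = above 50% but judged a plate artefact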;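 note: 50 nL library stock added to about 25 µL; numbers are from one replicate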
PrP 5UTR inh – suppresses PrP 5' UTR mRNA reporter expression; cell-based PrP 5' UTR mRNA reporter, plate reader; inhibition, % (concentration not given with the values); hit rate 0.35% among 340,000; AID 488862;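 active = every replicate at 50% or more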;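 note: 0 = median of the neutral control wells; tested in H4 reporter cells; numbers are from one replicate; inactives centre near -14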
RN4220 kill – kills Staphylococcus aureus RN4220; inhibition, % (concentration not given with the values); S. aureus RN4220 growth, OD600, 16 h; hit rate 0.33% among 330,000; AID 1259311;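 active = z-score of -3 or lower and OD600 up to 0.18 on both plates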;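 note: plate controls were untreated cells for no effect and reference antibiotic for full effect; stock transfer was 100 nL into about 80 µL; one replicate is shown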
Mtb hypoxia rep growth – also measured in Mtb hypoxia rep; calls as there; growth inhibition, %; measured here: M. tuberculosis growth (absorbance);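 0% = vehicle and 100% = reference antibiotic; read after six days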
Numbers without * were called inactive; ? = inconclusive; . = no result given.

SMILES	Autofluor counter	Sa ugtP lethal	Mtb hypoxia rep	Mtb hypoxia rep growth	BJeLR lethal	PrP 5UTR inh	RN4220 kill
CC(C)(C)SCCNC(=O)COc1ccc(Cl)cc1	11029	4	15	9	-5	-11	-1.5
CC1CCN(S(=O)(=O)c2ccc3c(c2)c(=O)c(C(=O)N2CCOCC2)cn3C)CC1	5184	-2	-11	-6	-2	-24	0.6
O=C(CCc1ccccc1)NC(=S)Nc1ccc(S(=O)(=O)N2CCOCC2)cc1	1910	71	7	7	-1	-19	5.2
O=C(O)CCCn1cc(NC(=O)COc2ccccc2)cn1	4463	4	5	0	-1	-10	3.0
CCN1CCN(C(=O)Nc2ccccc2OC)CC1	5768	1	5	-6	.	-3	-1.9
CCOC(=O)c1sc(C(=O)OCC)c(OCCO)c1OCCO	?	5	-1	6	-7	-10	4.7
O=C(C1Cc2ccccc2CN1S(=O)(=O)c1ccc(F)cc1)N1CCCCC1 (configuration not stated)	14968	12	13	9	4	-17	4.9
CCN(CC)S(=O)(=O)c1ccc(C)c(NC(=O)Cn2c(=O)cnc3ccccc32)c1	2308	-2	.	.	5	-38	3.3
NC(=O)C1CCN(C(=O)c2ccc(Cl)c(S(=O)(=O)N3CCCCCC3)c2)CC1	3570	6	15	4	.	-16	8.6
CCCCn1c(N)c(N(CCOC)C(=O)c2ccc(-n3c(C)ccc3C)cc2)c(=O)[nH]c1=O	.	4	-3	13	12	-16	4.2
CCN1CC2C3C(=O)N(C)C(=O)C3[C@](C)(C1=O)N2C(=O)c1ccc(C(F)(F)F)cc1 (some centres not stated)	.	1	14	6	.	.	3.5
Cc1nc(C)c(/C(O)=C/c2nc3ccccc3oc2=O)s1	2405	-6	.	.	1	-4	4.4
COc1ccc(-c2nnc3ccc(SCC(=O)N4CCCCC4)nn23)cc1OC	5161	-16	-8	0	8	-4	1.8
C=CCNC(=S)N1CCN(CCNC2=CC(=O)CC(C)(C)C2)CC1	3718	-1	8	11	-2	-21	2.5
CC(=O)c1ccc(C(=O)Nc2ccc(N3CCOCC3)cc2)cc1	3018	6	.	.	1	-25	4.6
CC(C)=CCc1c([C@@H]2CCc3ccc(O)cc3O2)cc2c(c1O)OC(C)(C)C=C2	3913	-1	.	.	-2	.	1.6
O=CNn1cnc2c(oc3nc(-c4ccccc4)cc(-c4ccco4)c32)c1=O	4358	16	11	14	3	-4	21
O=c1c2ccccc2nc(-c2ccc(Cl)cc2Cl)n1O	3489	2	-4	-6	7	11	2.2
COc1ccc(C(=O)Nc2ccc(NC(=O)C3CCCCC3)nc2)cc1	5862	15	-7	-12	-14	-11	-4.9
CN(C)CCNC(=O)CN1C(=O)COc2ccc(C(C)(C)C)cc21	5650	1	2	0	4	2	1.6
O=C(NCc1csc(-c2ccccc2)n1)c1ccco1	2466	13	13	8	0	-38	20
O=C(CSc1nnc(Cc2ccccc2)o1)Nc1ccc(N2CCOCC2)cc1	?	4	1	-11	.	5	4.7
COc1ccc(C(=O)NCc2ccncc2)cc1S(=O)(=O)N1CCOCC1	4460	5	-5	-12	.	-19	0.2
COC(=O)n1c(=O)oc2ccc(S(=O)(=O)N3CCCCC3)cc21	4974	8	-4	5	5	-82	1.6
CC(C)CNC(=S)NC(=O)c1ccccc1Cl	2340	-7	-4	1	10	-43	-0.4

Exported with values under each structure: part of the list above
Every second line gives: Autofluor counter | Sa ugtP lethal | Mtb hypoxia rep | Mtb hypoxia rep growth | BJeLR lethal | PrP 5UTR inh | RN4220 kill
> CC(C)(C)SCCNC(=O)COc1ccc(Cl)cc1
 : 11029 | 4 | 15 | 9 | -5 | -11 | -1.5
> CC1CCN(S(=O)(=O)c2ccc3c(c2)c(=O)c(C(=O)N2CCOCC2)cn3C)CC1
 : 5184 | -2 | -11 | -6 | -2 | -24 | 0.6
> O=C(CCc1ccccc1)NC(=S)Nc1ccc(S(=O)(=O)N2CCOCC2)cc1
 : 1910 | 71 | 7 | 7 | -1 | -19 | 5.2
> O=C(O)CCCn1cc(NC(=O)COc2ccccc2)cn1
 : 4463 | 4 | 5 | 0 | -1 | -10 | 3.0

(more compounds)
SMILES	Autofluor counter	Sa ugtP lethal	Mtb hypoxia rep	Mtb hypoxia rep growth	BJeLR lethal	PrP 5UTR inh	RN4220 kill
Cc1ccc(CN2[C@@H](CC(C)C)COCCS2(=O)=O)cc1	2955	.	.	.	8	5	.
COC(=O)C1=C(c2cccc(OCc3ccccc3)c2)CC2CCC1N2C(=O)NCc1ccccc1 (configuration not stated)	.	4	6	7	.	.	-2.7
COc1cc(C2=NC(CO)(CO)CO2)cc(OC)c1OC	4178	5	15	4	-8	-2	4.7
OC1CCN(C(=S)Nc2ccc(Oc3ccccc3)cc2)CC1	1978	0	19	2	8	-5	5.7
CCOC(=O)C1CCN(C(=O)c2c(-c3ccccc3)noc2C)CC1	3340	11	8	0	-10	-12	5.3
Cc1cccc(CN2CCC(CNC(=O)Cn3ncc4c([nH]c5ccccc54)c3=O)CC2)c1	7246	-2	4	-7	-10	-13	1.8
O=C(COc1ccccc1)NNc1nc2c(F)cc(F)cc2s1	4024	-13	-9	-6	25	13	-0.8
COCCn1c(N)c(C(=O)Nc2sc3c(c2C(=O)OC)CCCC3)c2nc3ccccc3nc21	3682	0	-1	0	-9	-19	-7.2
O=C(NCc1nc2ccccc2[nH]1)c1c(F)c(F)c(F)c(F)c1F	3297	2	17	5	0	-2	3.7
O=C(CNC(=O)c1ccccc1F)NN=Cc1ccc2c(c1)OCO2	.	9	-7	0	.	.	1.8
COc1ccc(CNC(=O)Cn2cc([N+](=O)[O-])nc2C)cc1	4052	-2	10	16	2	-3	1.2
CCC(CC)NCCOC(=O)c1ccc([N+](=O)[O-])cc1	3757	6	5	2	0	-25	3.0
COc1cc(C=NNC(=O)c2ccncc2)ccc1OC(C)=O	.	5	.	.	.	.	-0.4
CCOC1=NN(c2ccccc2)C(=O)/C1=C\N(C)C	1916	.	.	.	-6	-6	.
CSc1nc(NCC(C)O)c2c3c(sc2n1)CN(C)CC3 (configuration not stated)	4387	.	.	.	1	-12	.
COc1ccc(NC(=O)[C@H](C)NC(=O)C2CCN(S(=O)(=O)c3ccc(C)cc3)CC2)cc1	5923	-4	-8	-5	-12	-2	-1.5
COc1ccc(C(=O)NCc2ccc3[nH]c(C)cc3c2)cc1OC	3032	3	14	-3	6	-11	2.1
CC1CCc2sc(NC(=S)NC(=O)c3ccccc3)c(C#N)c2C1 (configuration not stated)	2751	11	4	1	-4	-37	-2.2
CCOc1ccccc1C(=O)N/N=C/c1cccc2cccnc12	4959	.	.	.	-1	-15	.
Cc1ccc(S(=O)(=O)NNc2ccccc2)c(C)c1	8192	1	0	-2	.	-25	-5.7
O=C(COc1ccc([N+](=O)[O-])cc1Cl)N(C1CCCCC1)C1CCS(=O)(=O)C1 (configuration not stated)	?	0	-3	2	.	-51	-1.6
Cc1noc(C)c1CSc1nnc(-c2ccncc2)n1-c1cccc(Cl)c1C	4152	-2	4	12	1	-8	5.4
O=C(C1=NN[C@@H]2C(=O)N(c3cccc(C(F)(F)F)c3)C(=O)[C@H]12)c1cnccn1	4172	-2	0	10	-11	-33	0.9
O=C(CSc1n[nH]c(-c2ccccc2)n1)Nc1ccc(Br)cn1	3351	11	1	6	-1	-12	26
Cc1cc(=O)n2nc(N3CCCC(C(=O)NCCC4=CCCCC4)C3)sc2n1 (configuration not stated)	3736	-4	21	9	12	0	-12
Going on with the list.
SMILES	Autofluor counter	Sa ugtP lethal	Mtb hypoxia rep	Mtb hypoxia rep growth	BJeLR lethal	PrP 5UTR inh	RN4220 kill
CCOc1ccc(NC(=O)COC(=O)c2ccc3c(c2)OCCO3)cc1	7975	1	23	48	.	-48	2.9
CC(OC(=O)C1CCC1)C(=O)Nc1cc(Cl)cc(Cl)c1 (configuration not stated)	6383	0	-1	-4	-8	-10	4.8
Cn1ncc(C#N)c1/N=C/N(Cc1ccccc1)Cc1ccccc1	2605	.	.	.	-6	-2	.
N#CCCn1cc(/C=C(\C#N)c2nc3ccccc3s2)c(-c2ccc(F)cc2)n1	9873	-20	8	5	-4	-15	4.1
CC(C)(C)c1ccc(OCCCC(=O)NNC(=O)c2ccccc2O)cc1	5804	1	11	-6	21	-13	6.8
O=C(Nc1ccc(Cl)c([N+](=O)[O-])c1)c1ccncc1	2329	-4	3	3	-4	-5	-2.3
O=S1(=O)CCOC[C@H](CC2CCCCC2)N1Cc1ccc(Cl)cc1	2781	.	.	.	4	-9	.
COc1ccc(CCC(=O)N2CCCC(Nc3ccc(C)c(C)c3)C2)cc1OC (configuration not stated)	6190	4	-2	4	0	-10	3.0
Cc1c(C(=O)O)oc2c1ccc1ccccc12	3635	-5	.	.	1	-10	-0.4
COc1cccc2cc(C(=O)C3=C(O)C(=O)N(CCN4CCOCC4)C3c3ccc(C)o3)oc12 (configuration not stated)	5707	0	5	19	4	0	3.0
COc1ccnc(Oc2ccc(F)cc2)c1-c1ncn[nH]1	4288	-1	3	0	1	-26	4.0
O=C(Nc1ccccc1)N1C(=O)C2(OCCO2)c2ccccc21	3096	8	4	13	-5	-12	7.5
CCOc1cc(N2CCOCC2)c(OCC)cc1NC(=O)c1ccc(OCc2c(C)noc2C)c(OC)c1	2064	0	-5	6	-13	-5	1.6
O=C1C2CC=CCC2C(=O)N1c1ccc(NCCc2cccc(F)c2)c([N+](=O)[O-])c1 (configuration not stated)	2211	8	3	7	7	2	5.1
O=C(Nc1nnc(C2CC2)s1)c1cccc(S(=O)(=O)N2CCc3ccccc32)c1	2524	-7	.	.	2	-6	42
c1ccc2c(-c3cc(C4CCNCC4)[nH]n3)cccc2c1	4779	0	13	2	1	4	1.7
C=CCSc1ccsc1C(=O)O	8876	-7	-5	3	-3	-11	-1.0
CCOC(=O)c1ccc(NC(=O)CCOc2ccccc2)cc1	2510	1	.	.	-16	-3	-5.2
COc1cc(NC(=O)c2ccc(Br)cc2)ccc1NC(=O)c1cc2ccccc2o1	3415	-7	-3	0	3	-16	1.9
CN1CCN(C(=O)c2ccc(CNS(=O)(=O)c3ccc(F)c(Cl)c3)cc2)CC1	4468	16	0	-7	-2	-5	6.4
O=C(NC1CCCC1)C1CCC(CNS(=O)(=O)c2cccs2)CC1 (configuration not stated)	9453	11	4	-1	-1	-14	0.8
CCn1c(CNc2ccc(Cl)cc2)nnc1SCC(=O)OC1CCCCC1	3274	3	.	.	0	-20	-3.5
Cc1cc(NC(=O)CCC2CCCCC2)no1	2947	4	-3	-6	5	-14	1.8
COc1ccccc1N1CC(C(=O)Nc2nnc(SCc3cccnc3)s2)CC1=O (configuration not stated)	4135	-4	-1	-5	10	-6	4.1
Cc1cccc(C(=O)NC(=S)NNC(=O)c2ccccc2Cl)c1	2161	18	-4	7	4	-11	51
Next part.
SMILES	Autofluor counter	Sa ugtP lethal	Mtb hypoxia rep	Mtb hypoxia rep growth	BJeLR lethal	PrP 5UTR inh	RN4220 kill
CCc1nnc(NS(=O)(=O)c2ccc(NC(=S)NC(=O)c3ccc(Br)cc3)cc2)s1	1972	86*	16	3	11	-17	29
Brc1ccc(CSc2nnc(-c3ccccn3)n2Cc2ccco2)cc1	9817	-5	5	7	22	-25	3.1
Cc1cccc(NC(=O)Cc2coc3ccc4ccccc4c23)n1	5751	-7	5	6	1	-11	14
O=C(c1ccc(S(=O)(=O)Nc2ccccc2F)cc1)N1CCN(c2ccccc2O)CC1	6237	-6	0	9	-2	4	10.0
CC(=O)Nc1nonc1NC(=O)COc1ccccc1	4284	5	-7	-9	-10	-30	1.0
CC(=O)C1=C(C)NC(=O)NC1c1ccccc1 (configuration not stated)	3728	5	.	.	8	-8	1.0
NNc1nc(-c2ccccc2)cs1	3086	2	15	9	3	-19	7.1
Cc1ccc(C(=O)N2CCN(c3ncccn3)CC2)cc1S(=O)(=O)N1CCCCC1	2339	5	4	3	-1	-6	9.8
O=C(Nc1ccc(S(=O)(=O)Nc2nccs2)cc1)c1cc(=O)[nH]c2ccccc12	5439	-5	16	13	2	-8	6.9
CCCCCCC(=O)Nc1nc(C)c(-c2csc(Nc3ccc(Cl)cc3)n2)s1	4090	.	.	.	2	-24	.
Cc1ccc(N2CCN(C(=O)c3cc(-c4ccc(F)cc4)[nH]c3C)CC2C)cc1 (configuration not stated)	3603	-3	7	9	2	-9	-0.7
O=C1CSCC(=O)N1c1ncc(C(F)(F)F)cc1Cl	4494	8	1	-9	5	-11	2.4

Source: PubChem BioAssay
